# Compound activity as filed in PubChem.
# Hck-Nef inh: human Hck-Nef kinase inhibition; P08631; Recombinant Hck-YEEI plus Nef, Z-Lyte FRET kinase assay; inhibition, % at 20 µM; 220,000 tested, 0.68% active; AID 463187;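 active = Hck-Nef kinase inhibition above about 50%, limit read from the data; inactive = inhibition below that limit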;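 note: 0% = DMSO with Hck plus Nef and 100% = Hck alone without Nef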
# MDM2 E3 inh: blocks human Mdm2 ubiquitin ligase activity | cell-based MDM2 ubiquitination luciferase reporter, 2 h; 0 = plate control, 100 = twice control, blank-subtracted | signal enhancement, % at 5 µM | 210,000 tested, 0.11% active;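 active = signal enhancement of 30% or more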;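 note: luminescence tracks abundance of the self-degrading MDM2-luciferase fusion protein; higher signal means inhibition of MDM2 E3 ligase activity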
# Target sequence (Q00987 whole entry, looked up, the tested form may be a part): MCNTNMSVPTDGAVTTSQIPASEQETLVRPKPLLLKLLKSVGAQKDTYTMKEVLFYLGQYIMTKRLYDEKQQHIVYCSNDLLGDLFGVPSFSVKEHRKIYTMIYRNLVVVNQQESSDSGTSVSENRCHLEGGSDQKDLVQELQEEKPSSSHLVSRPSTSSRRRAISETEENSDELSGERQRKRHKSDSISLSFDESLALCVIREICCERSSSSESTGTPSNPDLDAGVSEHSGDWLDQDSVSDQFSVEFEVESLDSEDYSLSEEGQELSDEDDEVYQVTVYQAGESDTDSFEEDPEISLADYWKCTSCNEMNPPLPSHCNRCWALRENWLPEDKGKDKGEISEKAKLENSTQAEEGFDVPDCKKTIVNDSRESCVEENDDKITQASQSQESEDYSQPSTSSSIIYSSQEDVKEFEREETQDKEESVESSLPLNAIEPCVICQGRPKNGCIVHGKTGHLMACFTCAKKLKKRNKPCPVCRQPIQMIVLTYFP
#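 Test system: stable mammalian line carrying autodegrading MDM2–luciferase fusion reporter; quantity: 2000 cells in each well; times: 4 h cell settling then 2 h compound exposure, 37 °C; detection: luminescence with SteadyLite reagent, 15 min at room temperature; evaluation: percent signal gain over controls, blank-subtracted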
# zVAD death inh: blocks zVAD induced death of L929 cells. L929 zVAD necroptosis rescue, ATP luminescence, 24 h; with zVAD 60 µM. viability rescue, % at 10 µM. 220,000 tested, 0.38% active;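 active = activation, scaled between plate controls, above about 75%, limit read from the data; inactive = activation under that limit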;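 note: 0% = zVAD with DMSO and 100% = DMSO alone without zVAD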
# p47phox inh: inhibitors of human p47phox binding | AID 1274 | inhibition, % at 24.7 µM | P14598 | p47phox/p22phox peptide binding, fluorescence polarization, 2 h | 220,000 tested, 0.53% active;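 active = inhibition above about 30%, limit read from the data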;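 note: 0% = p47phox with labelled peptide and 100% = labelled peptide alone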
# 14-3-3 Bad inh: disrupts binding of bovine 14-3-3 zeta to phospho-Bad peptide | TR-FRET 14-3-3zeta/Dy647-pBad peptide displacement, 1 h | 220,000 tested, 0.71% active | inhibition, % at 21.7 µM;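 active = inhibition above about 70%, limit read from the data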;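 note: 0% = full 14-3-3 plus peptide FRET controls and 100% = background without 14-3-3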
# Active calls of the source: *; & = joins results of further samples; [ ] = remark or other dose.
(1) O=C(CSc1ncnc2ccccc12)NCc1ccc2c(c1)OCO2
(2) O=C(O)Cn1nc(C(F)(F)F)c2c1CCCCC2
(3) Cc1ccc2c(CC(=O)N3CCN(S(=O)(=O)c4ccc5c(c4)OCCO5)CC3)coc2c1
(4) Cn1ncc(Br)c1C(=O)O
(5) O=S(=O)(c1ccc2nc(SCc3cccc(Cl)c3)[nH]c2c1)N1CCOCC1
(6) COc1ccc2c(c1)c1nc3ccccc3nc1n2Cc1ccc(OC(C)C)c(OC)c1
(7) COc1ccc(/C(N)=N/OC(=O)CSc2ccccc2)cc1
(8) CCNC(=O)C1CC(=O)N(CC)C(=Nc2cc(Cl)c(O)c(Cl)c2)S1 (stereo unspecified)
(9) CC(C(=O)O)c1cccc(C(=O)c2ccccc2)c1 (stereo unspecified)
(10) CN(c1ccccc1)c1ccc(/C=c2\s/c(=C(/C#N)C(=O)C(C)(C)C)n(Cc3ccco3)c2=O)cc1
Assay by compound	1	2	3	4	5	6	7	8	9	10
Hck-Nef inh	-49	-2	-2	22	-1	0	-2	1	-3	10
MDM2 E3 inh	-3	10	-2	-15	-4	0	-13	-8	0	-11
zVAD death inh	-0.8	1.5	-0.1	1.3	1.0	1.0	-0.8	0.3	1.3	-0.5
p47phox inh	1	10	-16	8	-15	-28	-11	0	-2&-10	-256
14-3-3 Bad inh	0	25	7	-9	-14	3	5	6	7&8	-1[fluorescence artefact?]

# An excerpt of these results, as labelled records.
10) CN(c1ccccc1)c1ccc(/C=c2\s/c(=C(/C#N)C(=O)C(C)(C)C)n(Cc3ccco3)c2=O)cc1
  Hck-Nef inh = 10
  MDM2 E3 inh = -11
  zVAD death inh = -0.5
  p47phox inh = -256
  14-3-3 Bad inh = -1[fluorescence artefact?]
3) Cc1ccc2c(CC(=O)N3CCN(S(=O)(=O)c4ccc5c(c4)OCCO5)CC3)coc2c1
  Hck-Nef inh = -2
  MDM2 E3 inh = -2
  zVAD death inh = -0.1
  p47phox inh = -16
  14-3-3 Bad inh = 7

# Full records from above:
# `CN(c1ccccc1)c1ccc(/C=c2\s/c(=C(/C#N)C(=O)C(C)(C)C)n(Cc3ccco3)c2=O)cc1` in the list: Hck-Nef inh = 10; MDM2 E3 inh = -11; zVAD death inh = -0.5; p47phox inh = -256; 14-3-3 Bad inh = -1[fluorescence artefact?]
# `CC(C(=O)O)c1cccc(C(=O)c2ccccc2)c1` (stereo unspecified) in the list: Hck-Nef inh = -3; MDM2 E3 inh = 0; zVAD death inh = 1.3; p47phox inh = -2&-10; 14-3-3 Bad inh = 7&8
# `COc1ccc(/C(N)=N/OC(=O)CSc2ccccc2)cc1` in the list: Hck-Nef inh = -2; MDM2 E3 inh = -13; zVAD death inh = -0.8; p47phox inh = -11; 14-3-3 Bad inh = 5

# A portion of the library; rates above refer to the full screens.
